Screening results from PubChem.
Sa helicase inh – inhibitors of S. aureus replicative helicase, primary screen, biochemical, fluorescence unwinding readout; inhibition, %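 (tested at about 80 µM)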; replicative DNA helicase (DnaC/DnaB), Staphylococcus aureus; 0.05% of 120,000 active; AID 485395, 2010; purified S. aureus helicase, fluorescence unwinding assay; about half of the hits fall short of the stated cut;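 active means both duplicates at 50% or more, or one of them with a favoured structure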;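 further: 0% = mean of negative control wells and 100% = mean of positive control wells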
MgrA-DNA mod – S. aureus MgrA activity modulators, primary screen, biochemical, S. aureus Newman, fluorescence polarization | MgrA-DNA binding | 0.13% of 84,000 active | AID 602314, 2012 | inhibition, %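 (about 10 µg/mL by stock and volumes)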;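 active means above 50% in either of two replicates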;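 further: 0% = protein plus DNA without compound and 100% = DNA alone without protein; higher means less MgrA bound to DNA so lower polarization; one replicate is shown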
An asterisk follows results filed as active. These rows are one share of the data; rates above refer to the full screens.

`O=C(O)CCCC(=O)Nc1ccc(Oc2ncnc3cc(Cl)ccc23)nc1` gave Sa helicase inh -7.
CCOC(=O)Nc1cc(C(=O)OCC)c(C)nc1C was read as Sa helicase inh -17 and MgrA-DNA mod -2.5.
`Cc1nc(N2CCOCC2)[nH]c(=O)c1CCC(C)C` gave MgrA-DNA mod 1.1.
Screening COC(=O)c1cn(CC(=O)NCc2ccco2)c2ccccc12 returned Sa helicase inh 2 and MgrA-DNA mod -2.8.
For CN(C)S(=O)(=O)c1ccc2c3c(cccc13)C(=O)N2C(=O)c1ccco1 the results were Sa helicase inh 4.
Screening CCC(=O)Nc1nc2ccccc2n1CCN(CC)CC returned Sa helicase inh 11.
Screening COC(=O)c1cc(OC)c(OC)cc1NS(=O)(=O)c1ccc(Cl)cc1 returned MgrA-DNA mod -0.4.
NS(=O)(=O)c1ccc(NC(=S)N2CCC(O)CC2)cc1 was read as Sa helicase inh 14 and MgrA-DNA mod 1.5.
For COc1cc(C)c(C(C)C)cc1S(=O)(=O)N1CCCC(C)C1 (stereo not given) the results were Sa helicase inh -17.
For N#CCCN(CCc1ccccn1)C(=O)Nc1ccccc1 the results were Sa helicase inh 1.
`CN(C(=O)c1cn(C)c(=O)c2ccccc12)c1ccccc1` gave Sa helicase inh 2 and MgrA-DNA mod -0.5.
CCN(C(=O)c1cc(S(=O)(=O)N2CCc3ccccc32)cn1C)c1ccc(OC)cc1 was read as Sa helicase inh -25.
Screening CN(Cc1ccccc1)S(=O)(=O)Cc1ccccc1 returned Sa helicase inh -4 and MgrA-DNA mod 0.6.
COc1ccc(CCNC(=O)c2ccccc2OC)cc1 was read as Sa helicase inh -13.
`COc1cc(CN2CCCN(C)CC2)cc(OC)c1OC` gave Sa helicase inh -7 and MgrA-DNA mod -3.9.
NCCS(=O)(=O)NC1CCCCC1 was read as Sa helicase inh -7 and MgrA-DNA mod -0.9.
Screening CCC1CCCCN1C(=O)CSc1nnc(C)n2c1cc1sccc12 (stereo not given) returned Sa helicase inh 2 and MgrA-DNA mod -0.6.
Screening CCc1cccc(NC(=O)C2CCCN2S(=O)(=O)c2ccc3c(c2)CC(C)N3C(C)=O)c1 (stereo not given) returned Sa helicase inh -17 and MgrA-DNA mod 0.8.
For COc1ccc(C)c2sc(N3CCN(c4nc5c(OC)ccc(C)c5s4)CC3)nc12 the results were Sa helicase inh 5 and MgrA-DNA mod 1.5.
CCN(CC)c1ccc(C2NC(=O)NC(C)=C2C(=O)OCCOc2ccccc2)cc1 (stereo not given) was read as MgrA-DNA mod -3.1.
For Cc1cc(C)cc(N=C2NC(=O)/C(=C/c3ccc(N(C)C)cc3)S2)c1 the results were MgrA-DNA mod -1.3.
`Cc1cccc(Cn2nc(-c3ccc4c(c3)OCO4)ccc2=O)c1` gave Sa helicase inh 6.
For CC(Sc1nc2ccccc2c(=O)[nH]1)C(=O)Nc1ccc(N2CCOCC2)cc1 (stereo not given) the results were Sa helicase inh 13.
`O=C(O)c1ccn2c(C(=O)c3ccccc3)c(-c3ccccc3)cc2c1` gave Sa helicase inh 10 and MgrA-DNA mod 1.6.

Six structures from above, sorted by heavy-atom count, lowest first.
NCCS(=O)(=O)NC1CCCCC1 was read as Sa helicase inh -7 and MgrA-DNA mod -0.9.
Screening CN(Cc1ccccc1)S(=O)(=O)Cc1ccccc1 returned Sa helicase inh -4 and MgrA-DNA mod 0.6.
COc1ccc(CCNC(=O)c2ccccc2OC)cc1 was read as Sa helicase inh -13.
For COc1ccc(C)c2sc(N3CCN(c4nc5c(OC)ccc(C)c5s4)CC3)nc12 the results were Sa helicase inh 5 and MgrA-DNA mod 1.5.
CCN(CC)c1ccc(C2NC(=O)NC(C)=C2C(=O)OCCOc2ccccc2)cc1 (stereo not given) was read as MgrA-DNA mod -3.1.
Screening CCc1cccc(NC(=O)C2CCCN2S(=O)(=O)c2ccc3c(c2)CC(C)N3C(C)=O)c1 (stereo not given) returned Sa helicase inh -17 and MgrA-DNA mod 0.8.

The list continues.
`CSC(=NC12CC3CC(CC(C3)C1)C2)NC#N` gave MgrA-DNA mod 0.7.
Screening O=C1Nc2ccccc2O/C1=C\c1ccc(C(=O)NCCC2=CCCCC2)cc1 returned Sa helicase inh -6 and MgrA-DNA mod -1.1.
`Fc1ccc(OCCc2nc(-c3ccc(C4SCCS4)cc3)no2)cc1` gave Sa helicase inh 12.
Screening CC1CCc2cc(F)ccc2N1C(=O)c1cc2ccccc2oc1=O (stereo not given) returned Sa helicase inh 8 and MgrA-DNA mod -2.5.
Screening NC(=O)COC(=O)c1cnc(Cl)c(Cl)c1 returned Sa helicase inh 6 and MgrA-DNA mod 2.7.
CCN(C(=O)Nc1cn(C)c(=O)c2ccccc12)c1cc(C)ccc1C was read as Sa helicase inh -20.
`CC1CC(N(C(=O)c2ccco2)c2ccccc2)c2ccccc2N1` (stereo not given) gave Sa helicase inh 15.
Screening CCOC1C(OCC)N(S(=O)(=O)c2ccc(C)cc2)CCN1S(=O)(=O)c1ccc(C)cc1 (stereo not given) returned Sa helicase inh -2 and MgrA-DNA mod 0.7.
For COCC(C)n1c(COc2ccccc2F)nnc1SCc1c(C)noc1C (stereo not given) the results were Sa helicase inh 3.
For O=C(Nc1nn2c(-c3ccco3)nnc2s1)c1ccco1 the results were Sa helicase inh 9 and MgrA-DNA mod 9.4.
`COc1ccccc1CN(C)C(=O)CNC(=O)c1ccc(Br)o1` gave Sa helicase inh 10.
COC(=O)c1c(NC(=O)CCN2C(=O)c3ccccc3C2=O)sc2c1C(C(=O)OC)CC2 (stereo not given) was read as MgrA-DNA mod 3.5.
`O=C(CSC1CCCCC1)Nc1nccs1` gave Sa helicase inh -3.
`Cc1ccc(Cl)cc1NC(=O)c1ccc(Cn2cc(Cl)cn2)cc1` gave Sa helicase inh 2 and MgrA-DNA mod 1.4.
Screening Cc1ccc(Oc2ncccc2NS(=O)(=O)c2ccc(-c3ccccn3)s2)c2c1CCC2 returned MgrA-DNA mod -1.5.
`Cc1cccc(C(=O)NC(c2n[nH]c(=S)n2C)C(C)C)c1` (stereo not given) gave Sa helicase inh -11 and MgrA-DNA mod 4.0.
CC(C)(C)SCC(=O)Nc1cc(C(F)(F)F)ccc1Oc1ccc(C#N)cc1 was read as MgrA-DNA mod 1.2.
For O=C(Nc1ccccc1SCc1cccc(C(F)(F)F)c1)c1ccc(Cl)c(Cl)c1 the results were MgrA-DNA mod 1.8.
`CC(C)(C)S(=O)(=O)/C(C#N)=C/N1CCCCC1` gave MgrA-DNA mod -0.5.
For CC(=O)Nc1ccc(NC(=O)COC(=O)C2(c3ccc(Cl)cc3)CCCC2)cc1 the results were Sa helicase inh 12 and MgrA-DNA mod -2.5.
For O=C(NCCCN1CCCCC1)c1ccc2c(c1)sc1nc(-c3ccccc3)cn12 the results were Sa helicase inh 5 and MgrA-DNA mod -5.5.
COc1ccc(CCNC(=O)Cc2coc3c(C)c(C)ccc23)cc1OC was read as Sa helicase inh -27.
For c1ccc(CCn2c3ccccc3c3nnc(SCCN4CCOCC4)nc32)cc1 the results were Sa helicase inh 12.
For CC12CCC(C(=O)N3CCc4ccccc4C3)(OC1=O)C2(C)C (stereo not given) the results were Sa helicase inh -17.
`CN(C)CC(C)(C)C1OCC2(CO1)COC(C(C)(C)CN(C)C)OC2` (stereo not given) gave Sa helicase inh 10 and MgrA-DNA mod -6.8.
Screening CN1CCC(=NNc2ncnc3sc4c(c23)CCCC4)CC1 returned Sa helicase inh -4.
COC(=O)c1cc(-c2ccc(OC)c(OC)c2)n[nH]1 was read as Sa helicase inh 5.
For O=C(c1cc2n(n1)C(C(F)(F)F)CC(c1ccco1)N2)N1CCCCC1 (stereo not given) the results were Sa helicase inh 2 and MgrA-DNA mod -1.5.
For Oc1ccc(Br)cc1C=NCCC1=CCCCC1 the results were Sa helicase inh 1 and MgrA-DNA mod -0.1.
Screening CCOC(=O)C1CCN(S(=O)(=O)Cc2ccccc2)C1=O (stereo not given) returned MgrA-DNA mod -0.8.
`Cn1c2ccccc2c2n[nH]c(=O)nc21` gave Sa helicase inh -10.
For Cn1cnnc1SC(C(=O)Nc1cccc(C(F)(F)F)c1)c1ccccc1 (stereo not given) the results were Sa helicase inh -3.
COc1ccc(OC)c(S(=O)(=O)/N=C2\C=C3N(CCO)CCOC3(O)c3ccccc32)c1 (stereo not given) was read as Sa helicase inh -13.
For Cn1c2ccccc2c2nnc(SCC(=O)Nc3nnc(COc4ccccc4)s3)nc21 the results were Sa helicase inh 15.
For COc1cc2[nH]c(=O)n(CCCC(=O)N3CCc4ccccc4C3)c(=O)c2cc1OC the results were Sa helicase inh -17.
For Cc1ccc(S(=O)(=O)N2CCCN(C(=O)OC(C)(C)C)CC2)cc1 the results were MgrA-DNA mod -3.0.
`O=C(Cn1nc(C(=O)O)c2ccccc2c1=O)Nc1ccc(N2CCCCC2)cc1` gave Sa helicase inh 9.
Cc1cccc(CCNC(=O)Nc2cn(C)c(=O)c3ccccc23)c1 was read as Sa helicase inh -18.
For O=C(Nc1ccc(Cl)cc1)N1CCCN(c2ncc(C(F)(F)F)cc2Cl)CC1 the results were MgrA-DNA mod 1.2.
Cc1cc(I)ccc1NC(=O)C(C(C)C)N1C(=O)c2ccccc2C1=O (stereo not given) was read as Sa helicase inh 9 and MgrA-DNA mod -2.1.
For CC(=O)/C(N=Nc1c(F)cccc1F)=C(\C)O the results were MgrA-DNA mod 1.1.
Screening O=C(NCCC12CC3CC(CC(C3)C1)C2)C1CCCCC1 returned Sa helicase inh 3 and MgrA-DNA mod -2.0.
Screening COC(=O)c1cc2ccccc2c(=O)s1 returned Sa helicase inh -23.
Screening N#Cc1ccccc1COc1ccc(CO)cc1 returned Sa helicase inh 1 and MgrA-DNA mod -2.0.
For C(=N\NC1=NCCN1Cc1ccccc1)/c1ccc2c(c1)OCO2 the results were Sa helicase inh 11.
`CC(=O)Nc1ccccc1NC(=O)c1ccco1` gave Sa helicase inh 7 and MgrA-DNA mod 4.0.
Screening Cc1ccn(C(=O)COc2ccc(Cl)cc2)n1 returned Sa helicase inh 1 and MgrA-DNA mod -1.4.
Cc1cccc(-c2c3c(nc4ncnn24)-c2ccccc2C3=O)c1 was read as Sa helicase inh 9 and MgrA-DNA mod -1.6.

4 compounds drawn at random from the list so far:
`O=C(Cn1nc(C(=O)O)c2ccccc2c1=O)Nc1ccc(N2CCCCC2)cc1` gave Sa helicase inh 9.
`CC(=O)Nc1ccccc1NC(=O)c1ccco1` gave Sa helicase inh 7 and MgrA-DNA mod 4.0.
Screening N#Cc1ccccc1COc1ccc(CO)cc1 returned Sa helicase inh 1 and MgrA-DNA mod -2.0.
For C(=N\NC1=NCCN1Cc1ccccc1)/c1ccc2c(c1)OCO2 the results were Sa helicase inh 11.

Following part:
CC(NCc1ccccc1O)C(=O)O (stereo not given) was read as MgrA-DNA mod -2.4.
For N#CCCn1cc(C(CC(=O)c2ccccc2)C(=O)O)c2ccccc21 (stereo not given) the results were Sa helicase inh 4.
For COc1cccc(OC)c1C(=O)Nc1ccnn1C the results were MgrA-DNA mod 3.4.
`CN(C)/C=C/C(=O)c1cc(C(C)(C)C)cc(C(C)(C)C)c1O` gave MgrA-DNA mod 1.1.
Screening O=C(O)c1ccc(NC(=O)c2cn(-c3ccccc3)nc2-c2cc3ccccc3o2)cc1 returned Sa helicase inh 8.
`CCC(=O)Nc1c2c(nn1-c1ccccc1)CSC2` gave Sa helicase inh 10.
`O=C(c1ccccc1)N(Cc1ccco1)C1(C(=O)Nc2ccccc2)CCCCC1` gave Sa helicase inh 1 and MgrA-DNA mod -0.6.
`Cn1c(-c2ccccc2O)n[nH]c1=S` gave Sa helicase inh 25 and MgrA-DNA mod -0.5.
CC1CCCN(C(=O)Cc2noc3ccccc23)C1 (stereo not given) was read as Sa helicase inh -14.
Screening O=C(c1ccccc1)N(Cc1nc2ccccc2c(=O)[nH]1)C1CCCC1 returned Sa helicase inh 7 and MgrA-DNA mod -0.4.
Screening CC(C)(C)NC(=O)CSc1nc2ccccc2[nH]1 returned Sa helicase inh 8 and MgrA-DNA mod -0.1.
C=CCNC1(C)CCS(=O)(=O)C1 (stereo not given) was read as Sa helicase inh -8 and MgrA-DNA mod 1.2.
Screening O=C(O)/C=C/c1cccc(NC(=O)c2ccccc2)c1 returned Sa helicase inh 13.
CCNc1nc(NCC)n2c(SCC(=O)NC34CC5CC(CC(C5)C3)C4)nnc2n1 was read as Sa helicase inh -6.
For CCNC(=O)Nc1n[nH]c(-c2ccccc2)n1 the results were Sa helicase inh -6.
`CCCN(CC1CC1)C(=S)Nc1ccccc1OC` gave Sa helicase inh 8 and MgrA-DNA mod -1.1.
Cc1ccccc1C(=O)NC1CCN(Cc2nnnn2C2CCCC2)CC1 was read as Sa helicase inh 5 and MgrA-DNA mod 3.9.
Screening COc1ccc(C2C(C#N)=C(N)SC3C(=O)N(c4ccc(C)cc4)C(=O)C32)cc1 (stereo not given) returned Sa helicase inh -13.
`OCc1nc(-c2ccc(C(F)(F)F)cc2)cs1` gave MgrA-DNA mod -1.9.
For CN(C)n1cccc1C=N/C(C#N)=C(\N)C#N the results were MgrA-DNA mod 0.5.
O=C(CCc1nc2ccccc2[nH]1)N1CCC(Cc2ccccc2)CC1 was read as Sa helicase inh 12.
Screening Cc1cccn2c(=O)c3cc(C(=O)N4CC(C)OC(C)C4)n(C)c3nc12 (stereo not given) returned Sa helicase inh 12 and MgrA-DNA mod 1.1.
Cc1cc(OCc2c(C)c(C)c(C)c(C)c2C)ccc1Cl was read as MgrA-DNA mod 1.2.
CC(C)Sc1nnc(NC(=O)c2ccc3ccccc3c2)s1 was read as Sa helicase inh 15.
